Screens as filed in PubChem.
Six1-Eya2 inh – qHTS Assay for Inhibitors of the Six1/Eya2 Interaction | Homeobox protein SIX1 (Homo sapiens) + Protein phosphatase EYA2 (Homo sapiens), … | AlphaScreen GST-Six1/His-Eya2 binding, biochemical; active compounds read low; control for the full effect not named in the record | activity change, % (concentration not given with the values) | actives 0.56% (n = 360,000) | AID 651725, 2012; in the data active = activity change below about -65%; inconclusive = about -30% to -65%; inactive = above about -30%; note: % is set by controls: 0 for no effect and ±100 for the full control effect
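Homogeneous AlphaScreen proximity assay pairing GST-Six1 with His-tagged Eya2 (added as 5X mix: 250 nM and 500 nM) in 50 mM Tris pH 8.0, 300 mM NaCl, 1 mM TCEP. Glutathione donor and nickel acceptor beads; 1 h, 37 °C, dark.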
CtBP-E1A inh – qHTS Assay for Inhibitors of the CtBP/E1A Interaction | CtBP / adenovirus E1A interaction (AlphaScreen) | activity change, % (concentration not given with the values) | actives 0.49% (n = 340,000) | AlphaScreen GST-E1A/His-CtBP binding, 1536-well; active compounds read low; control for the full effect not named in the record; in the data active means activity change below about -65%; inconclusive means about -30% to -65%; inactive means above about -30%; note: % is set by controls: 0 for no effect and ±100 for the full control effect
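In 5 uL wells, 23 nL compound meets equimolar GST-E1A and His-CtBP (5X stock 125 nM each) for 2 h, 37 °C. Beads (5X, 50 ug/mL) then 1 h, 37 °C, dark.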
D2 ag – Beta-Arrestin HTS for Positive Allosteric Modulators of the Human D2 Dopamine Receptor: Agonists; D(2) dopamine receptor (Homo sapiens), P14416; DiscoveRx PathHunter D2 beta-arrestin, luminescence, 90 min; 100% = 57 uM dopamine signal; activation, % (no concentration beside the values); AID 624465, 2012; actives 0.084% (n = 360,000); in the data active = activation above about 40%; inconclusive = about 15% to 40%; inactive = below about 15%; note: compound concentration not given in the record; the text of the record calls up to 30% inactive
Target sequence (P14416 whole entry, looked up): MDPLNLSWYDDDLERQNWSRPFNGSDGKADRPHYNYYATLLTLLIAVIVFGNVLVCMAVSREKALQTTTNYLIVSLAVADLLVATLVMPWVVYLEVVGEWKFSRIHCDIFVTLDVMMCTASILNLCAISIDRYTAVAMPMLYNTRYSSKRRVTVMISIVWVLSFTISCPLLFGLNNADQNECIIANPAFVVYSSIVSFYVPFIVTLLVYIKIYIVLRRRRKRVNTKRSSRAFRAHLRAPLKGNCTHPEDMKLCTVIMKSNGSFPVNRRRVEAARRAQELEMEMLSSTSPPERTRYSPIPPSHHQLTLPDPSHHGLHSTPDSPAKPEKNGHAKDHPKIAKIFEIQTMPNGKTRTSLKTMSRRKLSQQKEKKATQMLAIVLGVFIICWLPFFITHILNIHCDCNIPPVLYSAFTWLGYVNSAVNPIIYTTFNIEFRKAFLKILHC
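DiscoveRx PathHunter D2 beta-arrestin cells (2,100/well) attached overnight, then compound-stimulated 90 min at 37 C in HBSS/10 mM HEPES/0.1% Tween-20 buffer; beta-galactosidase complementation read by luminescence after 1 h at ambient temperature. Dopamine 57 uM final (EC100) as control.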
PINK1 modulator – A Quantitative High throughput Screen to Identify Chemical Modulators of PINK1 Expression; PINK1 immunofluorescence, high-content cytometry, 24 h; Potency, µM (top dose mostly 76.6 µM), for inactives: top-dose activation (PINK1 increase), actives largely listed as activators; actives 0.2% (n = 410,000); active = well fitted activation curve with a large enough effect; inconclusive = small, poorly fitted or top-dose-only effect; inactive = flat fitted curve, though single readings scatter; cell line not stated here;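 note: potency is the fitted concentration of half-maximal effect; % of control where 0% means no effect; nearly all actives have a fitted effect of over 65% in size; a mitochondrial uncoupler was the plate control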
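Decision-based qHTS: stable cells, 24 h exposure to five compound concentrations, CCCP as control. Fixed cells stained for PINK1 plus nuclear, mitochondrial and cell markers, cytometer read.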
TRPML1 agonist – qHTS for Agonists of the Human Mucolipin Transient Receptor Potential 1 (TRPML1); Mucolipin-1 (Homo sapiens), Q9GZU1; TRPML1-expressing cells, Ca2+ dye fluorescence, FDSS; host cell line not named in the record; reference of the full effect not given here; AID 624414, 2012; actives 0.12% (n = 410,000); activation, % (test concentration not listed); in the data active = activation above about 50%; inconclusive = about 30% to 50%; inactive = below about 30%; note: 0% is about no effect; the text of the record puts the active cut at 80%
Target sequence (Q9GZU1 whole entry, looked up): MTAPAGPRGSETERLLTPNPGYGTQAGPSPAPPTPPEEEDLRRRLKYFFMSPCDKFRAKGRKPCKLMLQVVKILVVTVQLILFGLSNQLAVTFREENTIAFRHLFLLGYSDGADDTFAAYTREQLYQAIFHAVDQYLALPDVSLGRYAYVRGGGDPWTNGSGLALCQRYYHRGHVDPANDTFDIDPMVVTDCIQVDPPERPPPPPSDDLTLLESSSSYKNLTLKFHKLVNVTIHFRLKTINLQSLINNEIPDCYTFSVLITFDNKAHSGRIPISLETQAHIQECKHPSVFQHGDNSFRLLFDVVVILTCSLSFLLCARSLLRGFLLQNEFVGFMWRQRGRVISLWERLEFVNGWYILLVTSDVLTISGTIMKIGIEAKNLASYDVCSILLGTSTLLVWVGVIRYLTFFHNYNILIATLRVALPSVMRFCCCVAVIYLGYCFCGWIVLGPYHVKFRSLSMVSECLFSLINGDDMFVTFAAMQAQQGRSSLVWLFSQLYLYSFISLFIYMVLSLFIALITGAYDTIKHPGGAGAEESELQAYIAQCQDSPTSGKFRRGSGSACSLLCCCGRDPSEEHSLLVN
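Tet-induced TRPML1-DL cells, 1,500 per well, cultured overnight, were loaded with a no-wash Ca2+ dye for 45–90 min. Calcium fluorescence was recorded on the FDSS for 110 s after compound addition, before the EC80 agonist (4 uM 54-4) was added.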
TRPML1 blocker – qHTS for Inhibitors of the Human Mucolipin Transient Receptor Potential 1 (TRPML1) | activity change, negative = inhibition, % (no concentration beside the values) | AID 624415, 2012 | TRPML1-inducible cells, Ca2+ dye fluorescence, FDSS; active compounds read low; inhibition of EC80 agonist-evoked calcium signal | actives 0.02% (n = 390,000); in the data active means activity change below about -50%; inconclusive means about -30% to -50%; inactive means above about -30%;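 note: stimulus is agonist 54-4 at its EC80 concentration; % is set by controls: 0 for no effect and ±100 for the full control effect; compound concentration not given in the record; the text of the record puts the active cut at -80%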
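Calcium fluorescence in TRPML1-DL cells induced overnight with Tet: a 110 s read after compound pin addition, then a 110 s antagonist read after challenge with 54-4 at 4 uM final (EC80).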
* = called active by the depositor; ? = inconclusive; . = no result given; & = joins results of further samples; [ ] = another dose, or the depositor's remark.

SMILES | Six1-Eya2 inh | CtBP-E1A inh | D2 ag | PINK1 modulator | TRPML1 agonist | TRPML1 blocker
CC(=O)c1ccccc1Oc1cc(NN2CCCCC2)c([N+](=O)[O-])cc1[N+](=O)[O-] | ? | ? | 2.4 | -0.5% | -0.2 | 11
Cc1ccc(Cn2c(=N)c(C(=O)NC3CCCC3)cc3c(=O)n4ccccc4nc32)cc1 | 3 | 1 | 1.4 | 2.4% | -0.2 | 9
O=[N+]([O-])c1cccn2cc(-c3ccc(Br)cc3)nc12 | -22 | -14 | 3.7 | 3.2% | -1.3 | -11
C=CCNC(=O)c1onc(CSc2ccccn2)c1C(=O)NCC=C | 13 | -6 | -0.5 | 1.6% | -0.9 | 5
C=CCNC(=O)/C(C#N)=C/c1c(N(Cc2ccccc2)Cc2ccccc2)nc2ccccn2c1=O | -12 | 0 | -3.1 | 1.1% | 1.0 | 23
CCc1c(O)nc(SCC(=O)Nc2c(C)cccc2C)n(-c2ccc(F)cc2)c1=O | -1 | 4 | -3.0 | -0.3% | -1.2 | 16
Cc1cc(C)nc(N2CCC(C(=O)NCCc3ccc(F)cc3)CC2)n1 | 10 | 10 | -4.0 | 12% | -0.4 | 55
COc1cc2c(cc1OC)C(=NO)CCCC2 | -15 | 36 | -3.9 | 3.0% | -0.3 | -9
O=C1CN(C(=O)COc2ccccc2)C(c2ccc(F)cc2)c2cc(Br)ccc2N1 (configuration not stated) | . | . | . | -2.1% | 1.2 | -1
Cc1ccc(NC(=O)CSCC(=O)Nc2cccc3ncccc23)cc1 | 1 | 0 | -3.1 | -0.7% | 0.7 | 20

A run of entries from the list above, as a working copy:
SMILES | Six1-Eya2 inh | CtBP-E1A inh | D2 ag | PINK1 modulator | TRPML1 agonist | TRPML1 blocker
Cc1ccc(Cn2c(=N)c(C(=O)NC3CCCC3)cc3c(=O)n4ccccc4nc32)cc1 | 3 | 1 | 1.4 | 2.4% | -0.2 | 9
O=[N+]([O-])c1cccn2cc(-c3ccc(Br)cc3)nc12 | -22 | -14 | 3.7 | 3.2% | -1.3 | -11
C=CCNC(=O)c1onc(CSc2ccccn2)c1C(=O)NCC=C | 13 | -6 | -0.5 | 1.6% | -0.9 | 5
C=CCNC(=O)/C(C#N)=C/c1c(N(Cc2ccccc2)Cc2ccccc2)nc2ccccn2c1=O | -12 | 0 | -3.1 | 1.1% | 1.0 | 23
CCc1c(O)nc(SCC(=O)Nc2c(C)cccc2C)n(-c2ccc(F)cc2)c1=O | -1 | 4 | -3.0 | -0.3% | -1.2 | 16
Cc1cc(C)nc(N2CCC(C(=O)NCCc3ccc(F)cc3)CC2)n1 | 10 | 10 | -4.0 | 12% | -0.4 | 55
COc1cc2c(cc1OC)C(=NO)CCCC2 | -15 | 36 | -3.9 | 3.0% | -0.3 | -9
O=C1CN(C(=O)COc2ccccc2)C(c2ccc(F)cc2)c2cc(Br)ccc2N1 (configuration not stated) | . | . | . | -2.1% | 1.2 | -1
Cc1ccc(NC(=O)CSCC(=O)Nc2cccc3ncccc23)cc1 | 1 | 0 | -3.1 | -0.7% | 0.7 | 20

The listing continues.
SMILES | Six1-Eya2 inh | CtBP-E1A inh | D2 ag | PINK1 modulator | TRPML1 agonist | TRPML1 blocker
COC(=O)Nc1sccc1C(=O)Nc1sccc1C(=O)OC | 1 | -1 | -1.4 | 17%[38.3 µM] | -0.2 | -5
CCn1nc(C)c(CN2CCC(Oc3ccc(C(=O)N4CCCC4)cc3)CC2)c1C | 0 | 4 | -2.9 | -0.6% | -0.3 | -1
CN1CCN(C(=O)OC2CC3CC2[C@H]2CCCCN2C3=O)CC1 (some centres not stated) | -1 | -6 | . | -0.3% | -0.8 | .
CC(C)NC(=O)CN(C(=O)CCC(=O)Nc1nccs1)c1ccc2c(c1)OCO2 | -5 | -1 | -13 | 6.6% | -0.4 | 25
Cc1cccc(C)c1NC(=O)CN(C)C(C)C(=O)NCC(=O)Nc1ccc(F)c(F)c1F (configuration not stated) | 11 | 1 | -2.3 | 0.0% | -0.2 | -18
CCOc1ccccc1C1C(C#N)=C(N)Nc2onc(-c3ccccc3)c21 (configuration not stated) | 1 | -12 | -0.1 | -1.0% | 0.4 | 47
CCn1cc(S(=O)(=O)c2cc(C)cc(C)c2)c(=O)c2cc(F)c(N3CCC(C)CC3)cc21 | . | . | . | 19% | 1.4 | 28
O=C(c1ccc(N2CCOCC2)cc1)N1CCCC(Nc2ccccc2)C1 (configuration not stated) | -1 | -3 | -3.1 | -1.1% | 1.0 | -2
Cc1ccc(N2C(=O)CC(Sc3cccs3)C2=O)cc1 (configuration not stated) | -2 | . | -4.3 | -0.5% | -1.3 | -2
COC(=O)c1[nH]c2ccccc2c1NC(=O)CN1CCCc2ccccc21 | -12 | -5 | -2.1 | ? | 2.4 | -6
CCc1cc2c(=O)n(N)c(CCC(=O)O)nc2s1 | 5 | 19 | -0.5 | -0.1% | -1.2 | 6
CN(C(=O)Cn1cnc2onc(-c3ccc(F)cc3)c2c1=O)c1ccccc1Cl | . | . | . | -4.2% | 0.0 | 55
CSc1nc(=S)n(-c2ccc([N+](=O)[O-])cc2)c(C)c1C(C)=O | 1 | . | 4.6 | 4.0% | . | .
CCc1cc2ccc(C)cc2nc1SCC(=O)NNC(=O)c1ccco1 | 5 | 0 | -0.4 | 0.0% | 1.1 | 1
Cc1cc(C)c(C2C(C#N)=C(N)Oc3n[nH]c(C)c32)cc1CN1CCOCC1 (configuration not stated) | 1 | 6 | 0.0 | -2.0%[38.3 µM] | 0.4 | -9
O=C1C=C(/C=C/c2ccccc2)C[C@@H](c2ccc(F)cc2)C1 | -13 | -29 | -5.1 | 5.4% | 3.6 | 6
COc1ccc(/C=C2\SC(=O)N(CCCC(=O)Nc3ccc(C(=O)O)cc3)C2=O)cc1OC | -8 | 0 | -1.0 | 2.8% | -0.6 | 9
O=C(CN1CCN(C(=O)c2cccs2)CC1)Nc1ccc(Br)cc1 | -7 | 4 | -2.8 | 0.3% | -0.7 | -8
N#CCC(=O)Nc1nc(-c2ccc3c(c2)OCCO3)cs1 | -7 | . | 3.5 | 2.1% | 1.8 | 4
Cc1ccccc1NC(=O)CSc1nc(-c2ccco2)nc2cc(=O)[nH]n12 | . | . | . | 1.2% | -0.4 | -15
COc1ccccc1-c1nnc(NC(=O)c2ccc3c(c2)OCO3)s1 | -2 | -2 | -0.9 | 11% | -0.3 | -8
O=C1CCC2c3ccc4ccccc4c3CCN12 (configuration not stated) | -1 | 9 | 1.1 | -1.4%[38.3 µM] | -0.6 | 0
CC(C)[C@@H](CO)NS(=O)(=O)c1ccc(Br)cc1F | 6 | 2 | -3.3 | 1.9% | 0.1 | 2
CC(=O)NCCn1c(SCC(=O)Nc2ccc(C)cc2)nc2ccccc2c1=O | 2 | -3 | -2.7 | -0.4%&2.5% | 0.1&0.6 | 2&-9
Cc1ccc(N(CC(=O)Nc2cccc(F)c2)S(=O)(=O)c2cccs2)cc1 | . | . | . | 3.8% | 1.5 | -15
CCOc1ccc(C(CC(=O)O)NC(=O)COc2ccccc2)cc1 (configuration not stated) | 13 | 0 | -0.9 | -0.9% | -0.6 | 4
CCOc1ccc(OCC)c(Nc2nc3ccc(C(=O)c4ccccc4)cc3n3cnnc23)c1 | . | . | . | -0.8% | -0.1 | -4
N#CCCN(C(=O)COC(=O)CSc1ccc(Cl)cc1)c1ccccc1 | -2 | 2 | -5.8 | 0.6% | 2.7 | 1
O=C(O)/C=C/C(=O)NCc1csc2ccccc12 | 0 | . | -4.1 | 1.1% | -0.4 | 42
COc1cc(C(=O)NCc2ccc3[nH]c(C)cc3c2)cc(OC)c1OC | -13 | -2 | -4.1 | 3.4% | -0.4 | 3
CCOC(=O)c1cc(-c2ccc(OC)cc2)n(CCC(=O)NCc2ccc(OC)cc2)c1C | . | . | . | 1.6% | 1.6 | -1
C=CCNC(=O)CSc1n[nH]c(-c2cc(Cl)ccc2OC)n1 | 0 | -19 | -1.2 | 3.0% | -0.1 | 5
CCOc1ccc(N(C(C)=O)c2nc(C)cc(C)c2C#N)cc1 | 7 | 8 | -2.2 | -1.0% | 1.0 | -3
COC(=O)CSc1n[nH]c(=S)s1 | -1 | 5 | 4.0 | 0.4% | -0.8 | 7
c1ccc(-c2nc(NCc3ccco3)c3oc4ccccc4c3n2)cc1 | -2 | 5 | -0.1 | -4.8%[38.3 µM] | 1.5 | -2
CN(C)CCNC(C(=O)Nc1cc(Cl)cc(Cl)c1)c1ccccc1 (configuration not stated) | -5 | -4 | 1.1 | 1.3% | 0.3 | 4
CCCCN1C=CC(=C2C(=O)c3ccccc3C2=O)C=C1 | -4 | 2 | 2.3 | -0.7% | 0.0 | 5
COc1cccc(C2=CC(c3cc(Br)ccc3F)n3nnnc3N2)c1 (configuration not stated) | . | . | . | 5.5% | 2.8 | -11
Cc1ccc(N(C(=O)CNC(=O)c2ccco2)C(C(=O)NCC2CCCO2)c2ccccc2)cc1C (configuration not stated) | 4 | 20 | 7.9 | 0.5% | 0.2 | 13
COc1ccc2nc3ccccc3[n+]([O-])c2c1 | -8 | 0 | -11 | -1.0% | 9.0 | -3
CN(C)CC1CCCCC1OC(=O)c1ccc(Cl)cc1 (configuration not stated) | 4 | 1 | -1.7 | 1.6% | 0.2 | -10
N#C/C(=C\c1cccs1)C(=O)c1ccccc1Cl | -2 | 1 | -0.1 | 1.4% | 4.0 | 12
O=C(CCNC(=O)c1ccccc1)OCC(=O)c1ccccc1 | 4 | 3 | 2.8 | 0.0% | -0.1 | 7
COc1cccc(CNC(=O)c2cc3c(=O)n(Cc4cccnc4)ccc3nc2C)c1 | . | . | . | 0.5% | 1.3 | -18
COc1ccc(NC(=O)N(C)C[C@H]2Oc3c(NC(=O)c4ccncc4)cccc3C(=O)N([C@H](C)CO)C[C@@H]2C)cc1 | -11 | -8 | -3.4 | 0.5% | -0.6 | -7
O=C(Nc1cccc(C(=O)O)c1)/C(=C\c1ccccc1)NC(=O)c1ccc(Br)o1 | 9 | -23 | -4.4 | 0.3% | -0.4 | 32
COc1cc(CNC2CCCCCCC2)c(Br)cc1OCCO | 2 | 4 | -3.0 | 2.8% | 0.2 | -5
CC1CCN(S(=O)(=O)c2ccc(C(C)C)cc2)CC1 | 7 | -1 | 1.3 | 3.6% | 115* | -10
O=C(O)c1ccc(CN2C[C@@H](CO)O[C@@H](n3cnc4c(N5CCOCC5)ncnc43)C2)cc1 | -6 | -6 | -2.4 | 0.7% | 0.3 | 4
